# Ecoli rRNA inh = reduced GFP signal of wild-type E. coli, primary screen, bacterial rRNA inhibitor project, GFP/RFP fluorescence, OD600, single point; E. coli WT GFP vs humanized-ribosome RFP mutants, 24 h; hits give low values; DMSO median 0, no signal -100; GFP signal change (wild-type ribosome), % (concentration not given with the values); 350,000 tested, 1.6% active;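 active means significant combined selectivity score with lowered wild-type GFP, culture density cut under 30%, mutant RFP and density less affected; inactive means any of these conditions unmet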; further: one replicate is shown; some compounds called inactive have numbers as strong as hits
# RanGTP-Impb inh = inhibitors of RanGTP-importin-beta interaction, primary screen, biochemical, FRET, CFP-Ran, YFP-importin-beta, homogeneous; cell-free CFP-Ran/YFP-importin-beta FRET ratio; 300,000 tested, 1.1% active; inhibition, % (concentration not given with the values); AID 2216, 2009; Ran GTPase (GTP-bound) - importin-beta complex;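 active means most replicates above 15%; inconclusive means exactly half above 15%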;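 further: 0% = DMSO wells and 100% = Ran loaded with GDP instead of GTP; wells of about 40 µL received 100 nL stock; the first replicate is given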
# Beta cell apopt = inhibitors of cytokine-induced beta cell apoptosis, primary screen, luminescence; INS-1E cytokine-induced death, ATP luminescence, 48 h; percent of positive-control rescue, neutral wells zero; protection from apoptosis, % (test concentration not listed); 300,000 tested, 0.8% active;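 active means all replicates at 75% or more, or half of them and the mean; inconclusive means half reach 75% but not the mean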;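 further: 0% = cytokine-treated negative control wells and 100% = positive control rescue; higher means more ATP so stronger rescue from cytokine killing; wells of about 40 µL received 100 nL stock; the first replicate is given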
# MLL AF4-AF9 inh = inhibitors of AF4 peptide binding to AF9, primary screen, biochemical, AlphaScreen, biotin-AF4 peptide, FLAG-AF9, single point; Protein AF-9 (Homo sapiens), P42568; inhibition, % at 10 µM; 350,000 tested, 0.47% active;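 active means every replicate reaching a set inhibition limit, whatever the replicate mean, cut at about 25% in these data; inconclusive means mean inhibition reaches that limit but some replicates miss it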;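 further: 0% = plate neutral control median and 100% = total signal loss; the record names both 10 and 1 µM as test concentration; the first replicate is given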
# Target sequence (P42568 whole entry, looked up): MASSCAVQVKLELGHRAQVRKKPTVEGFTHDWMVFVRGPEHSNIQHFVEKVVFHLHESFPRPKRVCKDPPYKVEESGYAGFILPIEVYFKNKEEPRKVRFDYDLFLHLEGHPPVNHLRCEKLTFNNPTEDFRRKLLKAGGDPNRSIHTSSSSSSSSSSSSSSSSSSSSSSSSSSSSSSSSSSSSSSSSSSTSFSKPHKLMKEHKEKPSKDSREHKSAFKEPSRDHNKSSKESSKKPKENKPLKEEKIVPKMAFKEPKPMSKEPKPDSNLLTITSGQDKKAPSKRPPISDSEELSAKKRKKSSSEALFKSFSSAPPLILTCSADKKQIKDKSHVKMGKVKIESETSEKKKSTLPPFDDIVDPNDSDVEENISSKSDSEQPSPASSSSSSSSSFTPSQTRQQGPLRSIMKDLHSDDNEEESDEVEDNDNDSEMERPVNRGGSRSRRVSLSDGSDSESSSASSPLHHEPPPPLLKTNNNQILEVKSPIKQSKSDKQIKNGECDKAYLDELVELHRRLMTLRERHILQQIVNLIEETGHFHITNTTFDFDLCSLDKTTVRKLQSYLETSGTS
# Calb FLC = C. albicans growth inhibition with fluconazole, primary screen, CaCi-2 strain, Alamar Blue fluorescence; C. albicans CaCi-2 (fluconazole-resistant clinical isolate) + fluconazole, 48 h; growth inhibition, % (concentration not given with the values); 300,000 tested, 0.57% active;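 active means most replicates above 75%; inconclusive means exactly half above 75%; inactive means most below 75%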;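 further: all wells also contain fluconazole at 8 µg/ml as a sub-toxic cotreatment; 0% = median of DMSO wells and 100% = median of geldanamycin control wells; wells of about 8 µL received 7.5 nL stock; the first replicate is given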
# Vif A3G = inhibitors of Vif binding to APOBEC3G peptide, primary screen, biochemical, TR-FRET, GST-Vif 1-94, biotin-A3G peptide, dose response retest (AID 1117319); Virion infectivity factor (Human immunodeficiency virus type 1 group M subtype B (isolate …; TR-FRET GST-Vif / biotin-A3G peptide binding; higher % means a stronger effect; test concentration not given here; strong numbers were not always called active; inhibition, %, or IC50 in µM where a hit was titrated; 260,000 tested, 0.57% active;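 active means above the screen mean plus three standard deviations and confirmed in dose response; inconclusive means results disagree or hit not tested in dose response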;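 further: Vif residues 1-94 fused to GST binding biotinylated APOBEC3G peptide 110-148; 0% = full assay without inhibitor and 100% = GST in place of GST-Vif; retest series ran down from 100 µM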
# T cruzi inh = inhibitors of intracellular T. cruzi growth, primary screen, luminescence, NIH3T3 host cells. inhibition, % (test concentration not listed). T. cruzi beta-gal in NIH3T3, 90 h. 300,000 tested, 1.4% active;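 active means mean inhibition across valid replicates above about 55%, limit read from the data; inconclusive means mean below that limit but half or more replicates reach it; inactive means mean below it, under half of replicates reach it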;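 further: signal also drops with host cell toxicity which is not excluded here; 0% = plate median of DMSO wells and 100% = zero luminescence signal; higher percent means less beta-gal luminescence so fewer parasites; stock transfer was 50 nL into about 50 µL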
# A1 inh = caspase 3/7 activation in MEF A1-2A-BIM cells, primary screen, A1 inhibitor project, cell-based, luminescence, HTS; AID 2462, 2010; Caspase-Glo 3/7 luminescence, 3 h; percent of clofoctol response, vehicle zero; caspase activation, % (test concentration not listed); 330,000 tested, 0.066% active;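 active means over half of replicate activation scores above 10%, or exactly half above 10 with the replicate mean above 10; inconclusive means replicate mean below 10 yet half the replicates above 10; inactive means over half of replicates below 10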;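 further: wells of about 30 µL received 50 nL stock; many hits fall short of the cut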
# Ecoli rRNA inh OD600 = also measured in Ecoli rRNA inh; calls as there; OD600 change, %; measured here: OD600 growth;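 optical density of the mix in the first replicate; 0 = DMSO median and -100 = no signal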
# Ecoli rRNA inh RFP = also measured in Ecoli rRNA inh; calls as there; RFP signal change, %; measured here: RFP humanized mutant strains;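 first replicate; 0 = DMSO median and -100 = no signal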
# * = called active by the depositor; ? = inconclusive; . = no result given. A portion of the library; the hit share may differ from the screen's.
SMILES,Ecoli rRNA inh,Ecoli rRNA inh OD600,Ecoli rRNA inh RFP,RanGTP-Impb inh,Beta cell apopt,MLL AF4-AF9 inh,Calb FLC,Vif A3G,T cruzi inh,A1 inh
Cn1c(SCC(=O)NCC2CCCO2)nnc1-c1c[nH]c2ccccc12 (stereo not given),3,16,-0.6,5.1,4,1.1,-12,17%,-8,-0.6
O=S(=O)(c1cccc(F)c1)N1CCN(C(=S)NCc2ccccc2)CC1,19,13,-0.4,1.8,-4,0.9,0,-4%,10,0.2
C/C(O)=c1/c(=O)nc2cccc3c2=c1c1ccccc1c3=O,5,-11,1.9,-4.4,.,-1.7,4,.,-9,1.7
O=[N+]([O-])c1ccc(NCCCNS(=O)(=O)c2ccccc2)c(Cl)c1,.,.,.,1.8,-1,.,26,.,-30,0.6
COc1ccc(-n2ncc3c2CC(C)(C)CC3NC(=O)CCC2=NNC(=O)CC2)cc1 (stereo not given),-2,10,-0.8,0.0,0,-0.3,-11,.,6,0.6
COc1cc(/C=C2\CCc3c2nc2ccccc2c3C(=O)O)cc(OC)c1OC,-4,-5,0.9,-7.2,-6,3.4,10,.,-16,-3.9
CSc1nsc(SC)c1C(=O)NC(=O)Nc1cccnc1,11,10,0.8,-1.2,-1,-9.7,22,.,.,0.0
O=C(CN1C(=O)NC(Cc2c[nH]c3ccccc23)C1=O)Nc1ccc(Br)cc1F (stereo not given),1,-22,10,.,-8,2.8,.,-6%,.,-1.7
CCOc1ccccc1C(=O)N(C)Cc1cc2cc(OC)ccc2[nH]c1=O,.,.,.,1.5,0,.,-1,-8%,-5,1.0
COc1ccccc1OCC(=O)c1[nH]c(C)c(C(C)=O)c1C,.,.,.,0.7,32,.,-4,5%,4,-0.5
Cc1cc(C)c(S(=O)(=O)N2CCCC2=O)c(C)c1,1,3,-1.2,2.9,-18,2.7,-5,32%,-13,0.1
COc1ccc(CN2C(=O)C(C)S/C2=N/N=C/c2ccco2)cc1 (stereo not given),-1,16,8.9,9.1,-2,6.7,11,9%,-4,-0.6
CC(C(=O)O)N1CCCCC1 (stereo not given),16,8,0.7,-0.7,-4,-18,5,2%,-27,0.1
COc1ccc(CN2CCN(C(=O)c3cccc4ccccc34)CC2)c(OC)c1OC,-5,-4,-0.6,3.9,-2,-0.5,-6,.,0,0.9
CCOC(=O)C/C(C)=N\Nc1ccc([N+](=O)[O-])cc1[N+](=O)[O-],3,8,-2.1,3.7,-5,4.1,-11,69%,-19,0.1
CC(C)Cn1c(SCC(=O)N2CCCc3ccccc32)nc2ccccc2c1=O,-15,-19,0.3,3.2,1,2.7,2,-4%,5,0.2
C[C@@H](CSc1ccc(Br)cc1)CN1CC[C@H](NC(=O)OCc2ccccc2)CCC1=O,-14,-25,4.8,.,3,-3.5,.,.,.,-1.9
Cc1ccc(OCC(=O)N/N=C/c2cn(C)c3ccccc23)cc1,.,.,.,-1.3,.,0.6,4,.,8,-1.1
CC1(C)CC(NC(=O)COc2ccc3c4c(c(=O)oc3c2)CCCC4)CC(C)(C)N1,6,9,-0.1,3.7,-4,-1.2,2,.,15,0.4
CS(=O)(=O)c1ccc(-c2nnc(NC(=O)C3=COCCO3)o2)cc1,7,7,2.8,-1.1,.,2.8,-8,-2%,-6,0.8
Cc1ccc(OCCC(=O)OCC(=O)c2c(N)n(CC(C)C)c(=O)n(C)c2=O)cc1,-6,-1,-0.6,.,1,-9.9,.,-17%,.,-1.9
Cc1ccc(NC(=O)COC(=O)c2c(-c3ccccc3)noc2C)cc1,1,-18,-11,.,2,2.7,.,-1%,.,1.0
C[C@H](NC(=O)c1nc[nH]c1C(=O)N1CCN(C(=O)OC(C)(C)C)CC1)C(=O)OCc1ccccc1,-1,-4,-1.2,-1.9,1,-1.1,1,.,13,?
O=C(COC(=O)CNC(=O)c1ccc(Br)cc1)Nc1nnc(-c2ccccc2)o1,-14,-11,3.6,0.1,1,-0.2,-2,2%,-1,0.1
OCCCNc1ncnc2scc(-c3ccc(Cl)cc3)c12,-15,-33,-3.5,?,-14,-1.5,-8,-6%,-7,2.0

# Another view of 6 compounds above.
molecule | Ecoli rRNA inh | Ecoli rRNA inh OD600 | Ecoli rRNA inh RFP | RanGTP-Impb inh | Beta cell apopt | MLL AF4-AF9 inh | Calb FLC | Vif A3G | T cruzi inh | A1 inh
CC(C(=O)O)N1CCCCC1 (stereo not given) | 16 | 8 | 0.7 | -0.7 | -4 | -18 | 5 | 2% | -27 | 0.1
COc1ccc(CN2C(=O)C(C)S/C2=N/N=C/c2ccco2)cc1 (stereo not given) | -1 | 16 | 8.9 | 9.1 | -2 | 6.7 | 11 | 9% | -4 | -0.6
C[C@H](NC(=O)c1nc[nH]c1C(=O)N1CCN(C(=O)OC(C)(C)C)CC1)C(=O)OCc1ccccc1 | -1 | -4 | -1.2 | -1.9 | 1 | -1.1 | 1 | . | 13 | ?
Cc1ccc(NC(=O)COC(=O)c2c(-c3ccccc3)noc2C)cc1 | 1 | -18 | -11 | . | 2 | 2.7 | . | -1% | . | 1.0
CC1(C)CC(NC(=O)COc2ccc3c4c(c(=O)oc3c2)CCCC4)CC(C)(C)N1 | 6 | 9 | -0.1 | 3.7 | -4 | -1.2 | 2 | . | 15 | 0.4
O=C(CN1C(=O)NC(Cc2c[nH]c3ccccc23)C1=O)Nc1ccc(Br)cc1F (stereo not given) | 1 | -22 | 10 | . | -8 | 2.8 | . | -6% | . | -1.7

# Carrying on.
SMILES,Ecoli rRNA inh,Ecoli rRNA inh OD600,Ecoli rRNA inh RFP,RanGTP-Impb inh,Beta cell apopt,MLL AF4-AF9 inh,Calb FLC,Vif A3G,T cruzi inh,A1 inh
O=C(CSc1ccsc1[N+](=O)[O-])N1CCN(c2ccccn2)CC1,-45,-74,-7.8,-1.2,-4,2.1,-8,5%,6,0.3
COc1ccccc1C1CCN(Cc2ccc(Cl)c(Cl)c2)CC1,-21,-46,7.5,3.5,4,2.9,3,-7%,17,0.3
O=C(NCCN1CCOCC1)c1ccc2c(c1)N(Cc1cccc(F)c1)C(=O)c1ccccc1S2,-14,-4,24,?,4,-7.2,0,16%,-2,0.7
O=C(O)CCC1OC(=O)C(O)=C1c1ccccc1 (stereo not given),.,.,.,1.2,.,-0.2,-1,.,0,-0.4
Cc1nnc(NC(=O)c2c(-c3ccccc3Cl)noc2C)s1,-6,-10,-2.7,-5.0,-6,-0.2,83*,-5%,-5,1.7
COc1ccc(C(=O)NNC(=O)C2CCCO2)cc1 (stereo not given),7,3,-1.1,?,-6,-2.5,8,24%,-8,0.7
COc1ccc(-c2noc(CN3CCCC(OCc4ccccn4)C3)n2)cc1 (stereo not given),1,-4,0.3,-3.2,.,-38,-16,-5%,10,.
O=C(Cc1ccccc1)Nc1cccc(NC(=O)c2cccs2)c1,4,-5,0.6,5.1,7,2.3,42,4%,-7,-0.2
O=C(CCN1C(=O)c2ccccc2C1=O)N1CCN(Cc2ccccc2)CC1,19,-4,3.1,9.9,.,0.6,8,9%,-6,0.5
COc1ccc2[nH]c(C)c(CCN3C(=O)C4CC=CCC4C3=O)c2c1 (stereo not given),-3,6,-2.5,6.6,-5,5.4,5,3%,8,-0.7
COC(=O)c1c(C)[nH]c(C=O)c1-c1ccccc1,-24,-29,-5.8,5.0,1,-4.3,-10,73%,10,1.3
CCS(=O)(=O)N1CCC(C(=O)NCc2ccc3c(c2)OCO3)CC1,7,-2,-5.6,-2.1,-1,5.1,6,14%,0,0.0
O=C1CN(c2nc(-c3cccs3)nc3sc4c(c23)CCCC4)CCN1,-29,-35,-1.7,3.3,2,10,27,12%,30,-0.5
COc1ccc(S(=O)(=O)c2c(O)c3ccc(C(=O)Nc4ccccc4F)cc3[nH]c2=O)cc1,-7,1,-2.7,3.2,.,-4.1,10,4%,-8,1.4
Cc1ccc(-c2n[nH]c(=O)c3ccccc23)cc1S(=O)(=O)NCCN1CCOCC1,.,.,.,-0.2,-3,.,2,1%,-7,1.6
COc1ccc(CNC(=O)COC(=O)CCc2c[nH]c3ccccc23)cc1,8,2,-2.8,1.0,-9,0.5,-16,1%,-2,-1.7
Cc1n[nH]c(=O)c2c(NC(=O)CSc3cc(Cl)ccc3Cl)oc(C)c12,-13,-19,8.1,.,0,1.5,.,.,.,-0.7
COc1ccccc1NC(=O)Nc1ccc2c(c1)OCCO2,.,.,.,0.0,17,.,-2,-5%,1,-12
COc1ccc(NC(=O)NC2CCCc3ccccc32)cc1OC (stereo not given),2,8,2.3,3.2,5,-2.4,2,-7%,2,0.5
Cc1ccc(Nc2cc(C)nc(-c3ccccc3)n2)cc1,-36,-39,-4.2,-1.5,-4,1.2,-2,0%,8,-0.3
CCN(Cc1ccccc1)S(=O)(=O)c1ccc(S(=O)(=O)N2CCN(CCC#N)CC2)cc1,5,7,-0.8,0.2,7,-4.6,-15,0%,13,0.2
CCOC(=O)C1CCN(CC(O)COC(CC)c2ccccc2)CC1 (stereo not given),8,10,-0.4,6.6,-10,-4.8,-12,.,-3,0.6
O=C(OC1CSc2nc3ccccc3n2C1)c1ccco1 (stereo not given),.,.,.,3.6,-7,.,0,15%,-4,1.4
O=C(COc1ccccc1Cl)NCCNC(=O)c1cccnc1,5,12,-0.2,-0.2,0,-0.7,-12,8%,-7,-0.2
COc1ccc(NC(=O)CCOc2ccccc2)cc1,.,.,.,-0.7,-2,.,-16,17%,4,0.0
Cc1[nH]c2ccccc2c1/C=N/NC(=O)c1cc(-c2ccccc2)n[nH]1,-23*,-7.0*,4.8*,0.2,-1,1.8,4,22%,.,-0.2
CCOC(=O)Nc1sc(C)nc1-c1ccccc1,12,9,8.1,-2.0,-14,-71,-10,5%,-21,0.2

# Screening data as filed in PubChem BioAssay.
